High-throughput results from PubChem.
RecA intein inh: blocks M. tuberculosis RecA intein splicing; P9WHJ3; cell-free RecA intein splicing, fluorescence; inhibition, %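 (about 9 µM by stock and volumes)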; 290,000 compounds, 0.75% hits; in the data active = inhibition above about 30%; inconclusive = no clear call, values can overlap the other calls;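 also: 0% = vehicle wells and 100% = reference inhibitor control wells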
Target sequence (P9WHJ3 whole entry, looked up): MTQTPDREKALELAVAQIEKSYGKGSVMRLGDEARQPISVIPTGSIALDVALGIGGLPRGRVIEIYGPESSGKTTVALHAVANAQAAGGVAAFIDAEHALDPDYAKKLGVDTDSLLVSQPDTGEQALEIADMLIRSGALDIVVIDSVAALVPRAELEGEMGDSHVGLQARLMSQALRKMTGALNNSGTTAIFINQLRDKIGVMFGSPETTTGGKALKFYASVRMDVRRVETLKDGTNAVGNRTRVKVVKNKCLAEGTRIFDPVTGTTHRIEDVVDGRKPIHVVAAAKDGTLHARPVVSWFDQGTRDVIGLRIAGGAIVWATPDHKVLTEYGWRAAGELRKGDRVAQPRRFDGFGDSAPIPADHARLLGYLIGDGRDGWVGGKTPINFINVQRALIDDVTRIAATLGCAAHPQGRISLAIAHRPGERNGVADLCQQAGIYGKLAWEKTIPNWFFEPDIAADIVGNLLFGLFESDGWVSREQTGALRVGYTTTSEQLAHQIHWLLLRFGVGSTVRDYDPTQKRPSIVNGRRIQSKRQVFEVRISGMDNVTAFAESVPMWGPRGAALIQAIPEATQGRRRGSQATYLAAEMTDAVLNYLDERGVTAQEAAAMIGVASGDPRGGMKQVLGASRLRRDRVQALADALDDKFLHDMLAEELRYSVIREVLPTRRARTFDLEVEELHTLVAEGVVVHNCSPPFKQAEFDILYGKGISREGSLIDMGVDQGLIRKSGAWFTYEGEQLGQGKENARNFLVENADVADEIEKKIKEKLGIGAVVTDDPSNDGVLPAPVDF
Arbovirus anti: arbovirus infection inhibition; arbovirus infection cell-based antiviral screen; inhibition, % at 10 µM; 200,000 compounds, 0.37% hits; AID 1251;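 active = inhibition from about 30%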;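 also: bluetongue infection of BSR cells; cell survival read as ATP light after 72 h; 0% = infected wells without compound and 100% = uninfected wells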
Mtb bLac sens: beta-lactam sensitization of Mtb H37Rv; AID 434955; inhibition, % at 25 µM; 330,000 compounds, 0.27% hits; M. tuberculosis H37Rv growth with meropenem, percent inhibition; hits of this screen are not shown here;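 active = about 74% or more and at least 40 points above the plate without the antibiotic, then above 30% in a dose series; inconclusive = first-round hits that could not be retested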;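 also: growth measured after seven days incubation then overnight dye step; 0% = bacteria only wells and 100% = bacteria with antibiotic; twin plates without the antibiotic show which effects depend on it; some results filed as inactive read as strong as hits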
YopH PTP inh: inhibitors of Yersinia enterocolitica YopH tyrosine phosphatase; fluorescence Ex485/Em525; inhibition, %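 (about 10 µM by stock and volumes)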; 140,000 compounds, 0.16% hits;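 active = inhibition of 50% or more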;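 also: controls were vehicle for no effect and minimum signal wells for full effect; inactives centre near -20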
Mtb growth: M. tuberculosis H37Rv growth inhibitors, H37Rv strain (AID 1626); one-dose inhibition, % at 10 µM; IC50 in µM for titrated hits; 220,000 compounds, 0.95% hits; M. tuberculosis H37Rv growth inhibition; higher % means a stronger effect;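 active = confirmed in a dose series; inconclusive = inhibition above 80% but not taken into the dose series; inactive = below 80% or under 30% at every dose of the series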;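 also: bacteria incubated seven days before Alamar blue readout; 0% = bacteria only wells and 100% = bacteria with antibiotic wells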
Arbovirus anti repeat: also measured in Arbovirus anti; calls as there; inhibition, %; measured here: 10K subset replicate screen; many hits read low in the repeat;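 first of two repeat runs on a subset; 0% = infected and 100% = uninfected wells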
* hit, by the source's call; ? = inconclusive; · = not tested or not shown.

SMILES	RecA intein inh	Arbovirus anti	Mtb bLac sens	YopH PTP inh	Mtb growth	others
O=C(NC(C(=O)c1ccccc1)N1CCOCC1)c1cccs1 (centres undefined)	3.0	5	-4	-37	-5%
CCOC(=O)/C=C1\SCC(=O)N1CC(=O)NCCc1ccc(F)cc1	-0.1	-4	-7	·	-9%
COc1ccc(C(=O)O)cc1S(=O)(=O)NCCCN1CCCC1=O	-1.1	5	-2	-50	-4%
CCc1nc(CNC(=O)c2cc(OC)c(OC)c(OC)c2)no1	-1.8	0	-6	12	0%
O=C1C(Cl)=C(N2CCN(Cc3ccccc3)CC2)C(=O)N1Cc1ccccc1	5.0	5	-5	-4	7%
N#Cc1cc2c(nc1SCc1cccc(Cl)c1)CCCCC2	-2.3	7	-9	-13	-5%
CCN(CC(=O)Nc1ccccc1C(F)(F)F)C(=O)CCc1nc2sc3c(c2c(=O)[nH]1)CCCC3	3.5	·	-8	·	·
CC1CCN(CCCNC(=O)C2CCCN(c3ncnc4c3nc3n4CCCCC3)C2)CC1 (centres undefined)	-23	·	6	·	·
O=C(Nc1oc2ccccc2c(=O)c1-c1ccc(Cl)cc1)c1ccco1	0.5	·	46	·	·
CCCCNC(=O)CSc1nc2ccc(NC(=O)CSc3nnc(COc4ccccc4C)n3C)cc2s1	-0.6	3	43	-13	·
CCC(=O)N1N=C(c2cccs2)CC1c1ccc(OC)cc1 (centres undefined)	2.5	·	-3	·	·
COc1ccc(NC(=O)c2nc(C)n(-c3ccc([N+](=O)[O-])cc3)n2)cc1	-1.3	5	0	·	7%
O=C(CSc1nc2cc(Cl)ccc2o1)NCCc1ccccc1	0.8	-1	100	-7	<0.39µM*
O=C(NCc1ccco1)c1cc(-c2ccc(F)cc2)on1	-0.4	2	1	-40	8%
CC(C)OCCCNC(=O)C1CC(=O)N(C2CCCCCCC2)C1 (centres undefined)	-1.6	10	-11	4	-4%
COc1cc2[nH]c(=O)n(CCC(=O)NCc3cccnc3)c(=O)c2cc1OC	-1.7	6	-4	-41	-3%	Arbovirus anti repeat=0
COc1cccc(CN2C(=O)NC3(CCCCCC3)C2=O)c1	-1.0	·	2	·	·
Cc1ccc(-n2ncc(C(=O)NC3CC3)c2C2CCN(C(=O)OC(C)(C)C)CC2)cc1	1.5	·	2	·	·
COc1ccc(C(=O)OCn2nnc3ccccc3c2=O)cc1[N+](=O)[O-]	·	2	98	·	79%
Cc1ccc(NC(=O)COC(=O)Cc2cccs2)cc1S(=O)(=O)N1CCOCC1	2.2	·	-10	·	·
O=C(CSc1n[nH]c(=O)n1Cc1ccccc1)Nc1ccc(F)c(F)c1F	-0.2	·	-11	·	·
CCCOC(=O)c1ccc(Oc2cn[nH]c2-c2ccc(O)cc2O)cc1	6.0	·	3	·	6%
Cc1ccc(S(=O)(=O)NC(CC(=O)O)c2ccc(F)cc2)cc1 (centres undefined)	-4.8	·	-9	·	·
C=C(C)C(=O)Nc1cccnc1Oc1ccc(F)cc1	-4.6	·	-3	·	1%
COc1ccc(CCNC(=O)NC2CCCCC2)cc1	-1.0	-3	-11	-36	-4%
C=CCNC(=O)NC(=O)COC(=O)CNS(=O)(=O)c1ccc(F)c(F)c1F	2.9	4	-2	·	1%
CCc1ccc(OCC(=O)N/N=C(\C)c2ccccc2OC(F)F)cc1	0.5	0	7	-19	0%
COc1ccc2[nH]c3nc(SC(C)C)nnc3c2c1	-0.9	-7	25	-25	·
O=C(CN1CCN(c2ccc(C(F)(F)F)cn2)CC1)Nc1ccc2c(c1)OCO2	1.2	·	1	·	-9%
O=C(c1ccc(Cn2c(=S)[nH]c3ccc(N4CCOCC4)cc3c2=O)cc1)N1CCC(N2CCCCC2)CC1	-45	16	-5	·	-2%
COc1ccc(CC(=O)N2CCCc3ccccc32)cc1	1.8	7	-4	-20	0%
CC(OC(=O)c1ccc(=O)n(Cc2ccccc2)n1)C(=O)Nc1cccc(Cl)c1 (centres undefined)	3.8	·	1	·	·
O=C(Nc1ccc(NC(=O)c2ccco2)c(Cl)c1)c1ccccc1	2.1	-11	1	·	-11%
CC(C)(C)c1ccc(/C=C/C(=O)c2ccc(NC3=NCCCS3)cc2)cc1	11	-21	96	-9	1%
CCn1c(=NC(=O)c2ccc(S(=O)(=O)N(C)C)cc2)sc2cccc(OC)c21	-7.2	-4	5	·	-3%
CCc1ccccc1S(=O)(=O)Cc1ccc(C(=O)N2CCN(c3ccccc3OC)CC2)o1	3.1	-8	-11	0	-1%	Arbovirus anti repeat=-12
CN(CC(=O)N1CCN(Cc2ccccc2)CC1)S(=O)(=O)c1cccc2nsnc12	1.0	-1	5	·	-3%
CCCC(=O)NC(c1ccc(Cl)cc1)c1ccc2cccnc2c1O (centres undefined)	1.2	·	-1	·	·
COc1cccc(/C=C2/SC(=O)N(CC(=O)N3CCc4ccccc4C3)C2=O)c1OCC(=O)O	6.6	7	26	-49	-4%
CC(C)[C@@H](C(=O)N1CCN(C(=O)OC(C)(C)C)CC1)n1cc(CCO)nn1	-0.6	0	-8	·	14%
Cc1cccn2c(=O)c3cc(C(N)=S)c(=N)n(CCCOC(C)C)c3nc12	-481	-15	-4	-31	3%
CC(=O)Nc1ccc(NC(=O)CSc2nccn2Cc2ccccc2)cc1	-3.7	-1	-3	7	-10%	Arbovirus anti repeat=6
Cc1cc(C(=O)N/N=C/c2c(C)nn(-c3ccccc3)c2Cl)n[nH]1	-0.1	·	-4	·	-2%
COc1ccccc1C(=O)NC1CCN(C(=S)NCCc2ccccc2)CC1	0.5	-4	-10	·	-8%
O=C(NNc1nc2c(F)cc(F)cc2s1)C1=COCCO1	-4.1	21	5	·	5%
COc1ccc(-c2oc3ccc(N4CCOCC4)cc3c2C#CCO)cc1	1.7	·	73	·	3%
Cc1oc(-c2ccc(Cl)cc2)nc1CN1CCC(C(=O)N2CCc3ccccc3C2)CC1	1.1	-27	96	31	·	Arbovirus anti repeat=-27
CCN(CC(=O)Nc1ccc(NC(C)=O)cc1)C(=O)c1ccccc1CCc1ccccc1	3.2	·	-8	·	·
O=C(c1ccco1)N(Cc1ccco1)Cc1cc2ccccc2[nH]c1=O	-5.2	·	2	·	·
CCOc1ccc(CCNC(=O)c2cccs2)cc1OCC	1.9	·	1	·	·
CCOC(=O)C(CC)/C(C)=N/NC(=O)c1ccccc1[N+](=O)[O-] (centres undefined)	1.3	10	14	-9	4%
Cc1ccc(-n2c(-c3ccccc3)c[n+]3c2CCC3)cc1	0.7	12	-4	·	-5%
Cc1ccc(C2CC(c3ccccc3Cl)n3nc(N)nc3N2)cc1 (centres undefined)	0.1	0	-5	-26	-5%	Arbovirus anti repeat=-4
COc1ccccc1NC(=O)Nc1ccnn1Cc1cccs1	·	2	-3	-43	-1%
CCN1CCN(C(=O)c2ccc(Cn3c(=O)[nH]c4cc(OC)c(OC)cc4c3=O)cc2)CC1	-0.1	0	?	-18	-5%
CCn1cc(C(=O)N2CCN(Cc3ccc4c(c3)OCO4)CC2)c2cc(OC)c(OC)cc2c1=O	0.7	6	-6	15	-8%	Arbovirus anti repeat=-5
Cc1cc(C)c(C(=O)COC(=O)c2cc([N+](=O)[O-])ccc2NCCO)cc1C	-1.2	15	6	-27	-10%
CN1CCN(C(=O)CN(C)S(=O)(=O)c2cc(Cl)ccc2Cl)CC1	-1.5	·	10	·	·
COc1cc(CNCCc2ccc3c(c2)OCO3)cc(OC)c1OC	-3.3	-22	-2	·	4%
Cc1c(C(=O)O)oc2c3c(ccc12)OCCO3	3.2	0	-3	-16	·

Next results
SMILES	RecA intein inh	Arbovirus anti	Mtb bLac sens	YopH PTP inh	Mtb growth	others
Cc1cc(C)cc(NC(=O)Cn2c(=O)oc3cc(S(=O)(=O)N4CC(C)CC(C)C4)ccc32)c1 (centres undefined)	0.4	-1	2	-55	11%
Cc1ccc(-c2cc(C(=O)Nc3ccncc3)c3ccccc3n2)cc1	1.2	·	-2	·	·
CCOc1ccc2nc(NS(=O)(=O)Cc3ccccc3)sc2c1	-0.2	-10	-20	-1	-3%
O=C(Cc1ccc([N+](=O)[O-])cc1)OCc1ccc([N+](=O)[O-])cc1	-1.2	·	6	·	·
O=C(COC(=O)c1ccc(Cl)cc1O)NCCN1C(=O)CSC1=O	0.4	·	0	·	-2%
O=C(O)CCC(=O)NNc1nc(-c2ccccc2)c2cc(Cl)ccc2n1	-4.8	·	5	·	·
CC(C)c1ccc(NNC(=O)C2CCC2)cc1	-1.1	·	89	·	54%
Cn1cnc2c(N/N=C/c3cccs3)ncnc21	-4.6	·	-9	·	-12%
CCCCn1c(N)c(N(CC(C)C)C(=O)CN(C)S(=O)(=O)c2ccc(NC(C)=O)cc2)c(=O)[nH]c1=O	-1.4	·	-7	·	·
O=C(N/N=C\c1cc(Br)cs1)c1ccncc1	-0.8	·	99	·	?
Cc1nc2c(=O)n(C)c(=O)n(C)c2nc1Cl	45*	-34	100	-12	?
O=C(c1ccc[nH]c1=S)N1CCN(S(=O)(=O)c2ccc(Br)cc2Cl)CC1	-3.2	·	4	·	·
O=[N+]([O-])c1ccc2nc(CCCO)[nH]c2c1	2.9	2	-7	·	-2%
COc1ncnc2c1N[C@@](C)(O)c1c(F)c(F)c(F)c(F)c1S2	2.7	-5	-5	-47	8%
CSc1ccccc1NC(=O)c1cccs1	-0.2	5	-2	-47	4%
CN1CCN(CCCN(Cc2ccco2)C(=S)Nc2ccc(Cl)cc2)CC1	1.2	-1	-6	·	3%
COc1ccc(-c2ccc(/C=N/N3C(=O)C4C5C=CC(C6CC56)C4C3=O)o2)c([N+](=O)[O-])c1 (centres undefined)	2.2	8	5	-15	-1%
O=C(Cn1cc(S(=O)(=O)N2CCN(c3ccccc3F)CC2)c2ccccc2c1=O)NCCCN1CCCCCC1	-0.3	-27	4	·	-1%
CC1CC(O)(CC(O)(c2ccccc2)c2ccccc2)C(C)CN1C (centres undefined)	4.7	·	-2	·	·
Cc1cc(C)c2nc(N3CCN(C(=O)c4cccs4)CC3)sc2c1	15	·	11	·	·
Cc1cccc(Nc2ccc(NCc3ccccc3)nn2)c1	4.7	-4	4	·	6%
COc1ccc(OC)c(S(=O)(=O)N2CCCC(C(=O)N3CCOCC3)C2)c1 (centres undefined)	0.6	·	-1	·	·
CCOC(=O)c1ccc(NC(=O)CN2CCN(C(=O)c3ccco3)CC2)cc1	1.7	·	0	·	·
COC(=O)C(CC(C)C)NC(=O)c1ccc([N+](=O)[O-])c(C)c1 (centres undefined)	0.7	7	94	4	-5%
CCCCn1c(N)c(N(CCC(C)C)C(=O)C2CC(=O)N(c3ccc4c(c3)OCCO4)C2)c(=O)[nH]c1=O (centres undefined)	2.2	·	-11	·	·
CCCCc1nnc(NC(=O)CSc2nc(=O)cc(N)n2-c2cccc(C)c2)s1	2.0	13	5	-43	-1%
Cc1ccc(S(=O)(=O)/N=C(\N)Nc2nc(C)c3ccccc3n2)cc1	1.4	6	5	-23	9%
COC(=O)C1CN(C(=O)C(C)Oc2ccc(F)cc2)c2ccccc2O1 (centres undefined)	-6.1	·	1	·	·
c1ccc(-c2cc3c(N4CCN(c5ncccn5)CC4)ncnc3s2)cc1	-1.2	-9	-5	·	0%
CCCn1nc(C(=O)Nc2nc3ccccc3[nH]2)c2ccccc2c1=O	-0.1	-18	6	-14	60%
O=[N+]([O-])c1ccc(Sc2nnnn2-c2ccccc2)c(Cl)c1	19	-8	4	-8	0%
O=C(O)c1ccc(OC(F)(F)C(F)C(F)(F)F)cc1 (centres undefined)	0.0	0	33	-36	-10%
COc1ccc(N2CCN(C(c3cc4cc(C)ccc4[nH]c3=O)c3nnnn3Cc3ccccc3)CC2)cc1 (centres undefined)	-0.6	-1	10	-3	6%
Cc1cc2cc(CN(C(=O)C3CC3)C3CCCC3)c3nnnn3c2cc1C	1.6	-5	78	-15	-5%

As a working copy, 2 of the compounds above:
SMILES	RecA intein inh	Arbovirus anti	Mtb bLac sens	YopH PTP inh	Mtb growth	others
CCCCn1c(N)c(N(CCC(C)C)C(=O)C2CC(=O)N(c3ccc4c(c3)OCCO4)C2)c(=O)[nH]c1=O (centres undefined)	2.2	·	-11	·	·
CCCCc1nnc(NC(=O)CSc2nc(=O)cc(N)n2-c2cccc(C)c2)s1	2.0	13	5	-43	-1%

Quoted at random: 5 compounds from above.
SMILES	RecA intein inh	Arbovirus anti	Mtb bLac sens	YopH PTP inh	Mtb growth	others
CCCCn1c(N)c(N(CCC(C)C)C(=O)C2CC(=O)N(c3ccc4c(c3)OCCO4)C2)c(=O)[nH]c1=O (centres undefined)	2.2	·	-11	·	·
CCCn1nc(C(=O)Nc2nc3ccccc3[nH]2)c2ccccc2c1=O	-0.1	-18	6	-14	60%
O=[N+]([O-])c1ccc(Sc2nnnn2-c2ccccc2)c(Cl)c1	19	-8	4	-8	0%
CCCCc1nnc(NC(=O)CSc2nc(=O)cc(N)n2-c2cccc(C)c2)s1	2.0	13	5	-43	-1%
COC(=O)C1CN(C(=O)C(C)Oc2ccc(F)cc2)c2ccccc2O1 (centres undefined)	-6.1	·	1	·	·

A portion of the library; the hit share may differ from the screen's.
